Rce1 inh = inhibitors of yeast Ras-converting enzyme; Q03530; yeast membranes, quenched prenylated peptide cleavage fluorescence; calls only; actives 0.27% (n = 290,000); AID 2563;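 active = fall in fluorescence gain of 50% or more versus controls, with final raw signal at or below 3038400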;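 also: plate controls were neutral control wells for no effect and wells lacking membranes for full effect; tested at 10 µM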
Target sequence (Q03530 whole entry, looked up): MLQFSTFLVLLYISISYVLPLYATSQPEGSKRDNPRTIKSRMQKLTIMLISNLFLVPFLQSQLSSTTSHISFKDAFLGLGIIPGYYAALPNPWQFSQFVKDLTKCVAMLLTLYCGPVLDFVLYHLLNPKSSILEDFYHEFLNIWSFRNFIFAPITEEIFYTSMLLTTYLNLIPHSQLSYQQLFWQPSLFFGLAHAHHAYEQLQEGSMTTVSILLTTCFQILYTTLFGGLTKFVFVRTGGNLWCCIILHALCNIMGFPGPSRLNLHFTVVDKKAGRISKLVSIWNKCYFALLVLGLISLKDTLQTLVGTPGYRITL
UUG fidelity = alters start codon recognition fidelity in yeast; S. cerevisiae UUG-firefly luciferase reporter, luminescence/redox ratio; activity score, % at 18.7 µM; actives 0.13% (n = 350,000); AID 602363;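 active = replicate mean at a twofold rise or more, about +100% in these data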;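 also: firefly luciferase made from a UUG start codon reports start codon fidelity; reporter light over untreated wells divided by growth signal over untreated wells; some hits fall short of that in this replicate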
HIV Env fusion = inhibitors of HIV Env-mediated cell fusion; inhibition, % at 12.3 µM; actives 1.1% (n = 360,000); AID 651610; HeLa-JRFL Env/CEM21 cell fusion, luciferase;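 active = mean replicate inhibition score of at least 50 and every replicate individually at or above 50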;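 also: 0% = plate neutral controls and 100% = maraviroc near 300 nM; one replicate is shown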
PABP polyA inh = PABP-poly(A) binding inhibition. actives 1% (n = 290,000). inhibition, % at 35 µM. PABP-poly(A) RNA binding, fluorescence polarization. P11940;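 active = 50% or more with normal probe brightness, or confirmed in later tests; about a fifth of its hits are not listed in these tables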;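 also: calls also rest on retests at 20 µM and on dose response follow-up; controls were probe without protein and protein plus probe with vehicle; some compounds called inactive have numbers as strong as hits; many hits fall short of the cut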
CSC inhib = cancer stem cell inhibition | cancer stem cell-like cells viability, luminescence | inhibition, % at 7.5 µM | actives 1.1% (n = 300,000) | AID 2717;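 active = mean at 75% or more and at least half the replicates too; tested in HMLE shEcad cells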;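 also: 0% = median of negative and 100% = median of positive control wells; the first replicate is given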
MT1-MMP act inh = blocks activation of human MT1-MMP | HT1080 RFP-PRO-GFP cells, GFP/RFP ratio fluorescence, overnight; percent of plate control window, DMSO zero | actives 0.061% (n = 360,000) | AID 651647 | GFP/RFP ratio change, % at 20 µM;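 active = GFP/RFP ratio change of at least 30% with cell ATP level not reduced by more than half and red fluorescence within 50% of control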; also: strong numbers were not always called active
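Assay system – RFP-PRO-GFP reporter HT1080 cells · Compound dosing – single dose of 20 µM compound, 1% DMSO final · Incubation – overnight compound exposure at 37 °C · Measure – GFP/RFP fluorescence ratio · Benchmarks – DMSO wells and RFP-L50D-GFP cells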
eIF4H FP inh = inhibitors of RNA binding by human eIF4H; Q15056; eIF4H fluorescence polarization binding assay; inhibition, % at 35 µM; actives 0.94% (n = 290,000); AID 2012;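 active = 50% or more with normal probe brightness, or confirmed in later tests; about a fifth of its hits are not listed in these tables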;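 also: calls also rest on retests at 20 µM and on dose response follow-up; 0% = protein and probe with vehicle and 100% = probe without protein; strong numbers were not always called active; many hits fall short of the cut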
eIF4H FP inh retest = further read-out of eIF4H FP inh, marked with its call; inhibition, %; compound at 20 µM; confirmation average;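 mean of two retest wells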
PABP polyA inh retest = also measured in PABP polyA inh; calls as there; inhibition, %; compound at 20 µM; confirmation repeats;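 mean of two retest wells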
MT1-MMP act inh RFP = also measured in MT1-MMP act inh; calls as there; RFP signal change, %; measured here: RFP expression control read;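 0 = vehicle wells; hits needed this value within 50% of zero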
* hit, by the source's call; i = inactive; . = no result given; & = joins results of further samples; [ ] = remark or other dose.

SMILES	Rce1 inh	UUG fidelity	HIV Env fusion	PABP polyA inh	CSC inhib	MT1-MMP act inh	MT1-MMP act inh RFP	eIF4H FP inh	others
NC(=O)COC(=O)c1cccc(S(=O)(=O)N2CCCCC2)c1	i	-12	-33	-7	-10	0	1	-10
CCOC(=O)C1=C(N)Oc2cc(O)ccc2C1c1ccc(C)cc1 (configuration not stated)	i	-2	4	-4	50	-6	-6	-1
COc1ccc(/C=C/C(=O)Nc2ccc(-n3nncc3-c3ccccc3)cc2)cc1OC	i	.	24	-10	17	-3	-8	5
Cc1ccc(NC(=O)c2ccc(C(=O)c3ccccc3)cc2)nc1	i	-21	-5	.	8	2	-9	.
c1cc2c(cc1C1=Nn3c(nnc3C3CCCCC3)SC1)OCO2	i	-20	39	5	37	-3	-5	-2
O=C(NCC[C@@H]1CC[C@@H](NC(=O)c2cnccn2)[C@@H](CO)O1)c1ccc2c(c1)OCO2	.	-5	9[16.7 µM]	.	.	2	6	.
O=C(CN1CCCCCCC1)Nc1cccc(Cl)c1Cl	i	-14	19	-14	62	-1	0	-5
COc1cc2nc(NC(=O)c3ccc(Cl)cc3)sc(=O)c2cc1OC	i	-6	5	3	0	-8	-10	-4
C[C@H]1CN([C@@H](C)CO)C(=O)c2cc(Br)cnc2O[C@H]1CN(C)C(=O)Cc1ccccn1	.	-10&-9	-4	.	.	1	9	.
O=C(Nc1nnc(CC(c2ccccc2)c2ccccc2)s1)c1ccco1	i	-17	-43	-11	11	-1	-5	-8
CC1=NN(C(N)=S)C(=O)C1N=Nc1cccc2ccccc12 (configuration not stated)	.	.	.	6	9	.	.	9
Cn1cc(C(=O)C(=O)N2CCOCC2)c2ccccc21	i	22	11	4	-12	10	-1	-1
CSc1nnc(NC(=O)c2ccc(C)c(S(=O)(=O)N3CCOCC3)c2)s1	i	-7	.	-2	-3	6	0	-4
COc1ccc(-c2cc(C)no2)cc1S(=O)(=O)Nc1cccc(C)c1	i	-11	-7	-6	13	2	-3	-5
Cc1nonc1OCCNCCNc1ccc([N+](=O)[O-])cc1Cl	i	.	-7	0	7	2	2	-3
CCc1cccc(CC)c1N1C(=O)c2cc(N3CCOCC3)c([N+](=O)[O-])cc2C1=O	i	-5	-14	-19	15	0	-6	4
CC(C)(C)OC(=O)C[C@@H]1C/C=C\C[C@H](CC(=O)N(CCO)Cc2ccccc2)C(=O)NC[C@@H](c2ccccc2)OC1=O	.	0	-92	.	9	1	4	.
O=C(O)c1ccc(N2CCN(c3ccc(Cl)cc3)CC2)c([N+](=O)[O-])c1	i	-7	1	-4	.	3	1	-1
COc1ccc(C2C3CCCCC3(O)CCN2C(=O)c2cccs2)cc1 (configuration not stated)	i	1	.	-1	-1	1	0	1
Cc1ccc2[nH]c3c(c2c1)CNCC3	i	-16	-10	-1	-11	5	3	-9
Cc1cc(OCC(=O)Nc2ccncc2)cc(C)c1Br	i	-3	46*	-2	3	18	-9	-2
O=C(NC(=O)c1ccccc1N1CCCCC1)Nc1ccc(Br)cc1	i	.	1	-4	57	-1	-5	-7
CC(=O)CC(C)(C)S(=O)(=O)c1ccc(NC(C)=O)cc1	i	-10	.	4	1	0	3	0
COc1ccc(NC(=O)NCCN2CCN(c3ccc(C)cc3)CC2)c(Cl)c1	i	-17	18	-10	-1	2	-3	3
N#C/C(=C(/O)COc1ccc(Br)cc1)c1nnc2n1CCCCC2	i	.	4	0	1	-5	-3	-1
CCCCC(CCC(=O)Nc1cccc([N+](=O)[O-])c1)C(=O)O (configuration not stated)	i	.	0	0	-7	1	5	0
COC(=O)c1ccc(Cl)c(NC(=O)CN(c2ccccc2)S(=O)(=O)c2ccc(OC)cc2)c1	i	-3	.	4	-6	-6	-14	-10
COCC(=O)c1[nH]c2ccccc2c1C	i	-18	-337	-2	3	-1	7	-16
CCOC(=O)c1c(COc2ccccc2)oc2ccc(O)cc12	.	.	.	-2	-1	.	.	-8
CCOc1ccc(C(=O)NCC(=O)OCC(=O)Nc2ccccc2OC)cc1	i	-17	59	-7	-3	-14	-3	-3
CCOC(=O)c1cc2c(ccn2C)n1Cc1ccc(Cl)cc1	.	.	9	21	4	-6	-2	12
O=C1ON=C(c2ccc([N+](=O)[O-])cc2)/C1=C/c1ccccc1O	i	-18	-2	1	0	2	0	5
CCc1cccc(OCC(=O)N(C)CC(=O)Nc2cccc(F)c2)c1	i	.	20	.	9	-2	-2	.
COc1ccc(Cc2nc(C(=O)Nc3ccc(F)cc3)cs2)cc1	i	-12	42	-2	-7	-1	-18	-9
O=C(NCCNCc1ccccn1)c1ccco1	.	.	-8	3	1	2	2	-3
Cc1nn(CC(=O)N2CCCCCC2)c(=O)c2cc3occc3n12	i	-6	-1	15	-19	-2	-1	-6
CC(C)(C)NC(=O)CSc1nncn1-c1ccccc1	i	.	.	7	.	8	2	1
O=C(Nc1cccc(S(=O)(=O)Nc2ccc(Cl)cc2)c1)c1ccc[n+]([O-])c1	i	.	6	-11	6	1	-4	-15
Cc1c(C(=O)N(C)Cc2ccc(OC(F)F)cc2)oc2ccccc12	i	-13	5	3	16	-2	-4	-1
CCOC(=O)c1[nH]cnc1C(=O)Nc1ccccc1	i	.	-28	4	-4	3	4	2
CCCCN(C(=O)CC1CCCCC1)c1c(N)n(CCCC)c(=O)[nH]c1=O	.	14	3	.	.	-4	0	.
CCC(C)[C@H](NC(=O)NCCC1=CCCCC1)C(=O)O (some centres not stated)	i	.	9	-2	-2	-2	1	-4
Cc1ccc(C)c(NC(=O)CSc2nnc(-c3cc(C)[nH]n3)n2N)c1	i	-13	0	0	10	-3	2	2
CCNC(=O)NC(=O)C(C)OC(=O)c1ccc(SC)cc1OC (configuration not stated)	i	.	3	-3	-1	2	1	12
CC(=O)N1CCN(c2ccccc2NC(=O)COc2ccc(Br)cc2)CC1	i	-13	25	-4	-23	-6	-5	-2
CC(=O)c1cnc(N(C)C)s1	i	9	.	8	-7	4	1	0
Cc1cc(N)n2nc(C)c(-c3ccc(Cl)cc3)c2n1	i	.	30	1	.	11	1	6
Cn1c(=O)c2c(-c3ccccc3)n(-c3ccccc3Br)cc2n(C)c1=O	.	-7	-10	.	.	-6	-9	.
C#CCNc1ccc(C(=O)OCC)cc1	i	-5	-1	4	-7	-1	-1	10
COc1ccc(S(=O)(=O)N/N=C(/C)c2ccc(C)o2)cc1	i	.	2	.	-4	-4	2	.

The listing continues.
SMILES	Rce1 inh	UUG fidelity	HIV Env fusion	PABP polyA inh	CSC inhib	MT1-MMP act inh	MT1-MMP act inh RFP	eIF4H FP inh	others
Cc1ccccc1Nc1nc(N)nc(CN(C)Cc2ccccc2Cl)n1	i	-31	4	3	-1	1	3	9
CC1C/C(=C/c2cccs2)C(=O)/C(=C/c2cccs2)C1 (configuration not stated)	i	.	.	-1	12	-8	-3	74	eIF4H FP inh retest=-26;PABP polyA inh retest=-5
CCOC(=O)c1sc(=S)n(C)c1NC(=O)c1ccc(OC)cc1	i	-16	22	1	-12	0	7	-9
O=C(CSc1n[nH]c(-c2ccncc2)n1)c1cccc([N+](=O)[O-])c1	i	-16	2	-7	-1	4	0	-15
O=C(NCCc1ccc(Cl)cc1)C1CCCN1C(=O)NCc1ccccc1 (configuration not stated)	i	-11	8	-1	-4	-5	-3	-6
COc1ccc(C(CNC(=O)C2CC(=O)N(Cc3ccccc3)C2)N2CCOCC2)cc1 (configuration not stated)	.	-18	-8	.	-10	-6	0	.
Cc1cnc(NC(=O)CSc2ccc(Cl)cc2)s1	i	-10	6	7	8	-3	-2	7
O=C(N/N=C/c1ccc([N+](=O)[O-])cc1)c1cccnc1	i	-14	3	9	26	7	-5	3
CN(C)c1ccc(C=Nc2ccc(N(C)C)cc2)cc1	i	-38	.	-13	2	16	13	-3
O=C1NC2(CCCCCC2)C(=O)N1Cc1ccc(Cl)cc1Cl	i	-16	24	8	-4	1	-10	-11
Cc1cc(O)cc(=O)n1Cc1ccccc1	i	.	-5	.	-6	0	0	.
CCSc1nnc(NC(=O)C2CCCCC2)s1	i	-2	-68	-15	.	-4	1	-6
COc1ccc(CNC(=O)C2CCN(C(=O)[C@@H](CC(C)C)NC(=O)OC(C)(C)C)CC2)cc1	i	6	.	2	.	-1	0	3
COC(=O)C(=Cc1ccccc1[N+](=O)[O-])C(=O)OC	i	-22	-294	5	52	2	-19	-12
Cc1cc(NC(=O)c2ccc3sc([C@@H]4O[C@H](CO)[C@H](O)[C@H](O)[C@H]4O)nc3c2)no1	.	-17	1	.	.	7	4	.
CCCCn1c(=O)c(CC(C)=O)nc2ccccc21	i	-15	-8	-5	-12	-1	4	30
COc1ccc(C2=NOC(C3(S(=O)(=O)c4ccccc4)CC(O)C3)C2)cc1 (configuration not stated)	i	-12	-24	.	-13	3	-3	.
COc1ccccc1/C=C/C=N/n1c(-c2cc(C)[nH]n2)n[nH]c1=S	i	-9	9	-1	-17	-2	2	-1
COc1cccc(CN2CCN(C(=O)c3oc4c(F)cccc4c3C)CC2=O)c1	i	4	-12	-2	13	0	4	-6
CN(CC(=O)Nc1ccc(F)cc1)C(=O)CN1C(=O)NC2(CCCc3ccccc32)C1=O (configuration not stated)	i	-11	.	32	.	-2	2	4
Cc1cc(Nc2cc(Cl)cc(Cl)c2)nc(N)n1	.	.	-54	-10	1	7	-8	0
C=CCOc1c(OC)cc(/C=N/Nc2cccc(C(=O)O)c2)c(Br)c1Br	i	-7	-67	5	31	0	0	2
Cc1c(C(=O)N2CCOCC2)c(S(=O)(=O)N2CCN(c3ccc(Cl)cc3)CC2)c(C)n1C	i	22	7	4	-12	-2	1	13
CC(=O)c1ccc(NC(=S)N2CCN(CCO)CC2)cc1	i	-17	-2	7	-8	2	3	-12
CC(=O)Cc1ccccc1OC(=O)c1ccco1	i	-12	-46	-2	-3	1	8	-2
CCCCN(C(=O)c1cccc(S(=O)(=O)N2CC(C)OC(C)C2)c1)c1c(N)n(CC(C)C)c(=O)[nH]c1=O (configuration not stated)	i	-3	.	13	-7	-3	-1	-10
COc1ccc(C(CNC(=O)CNC(=O)c2cccc(F)c2)N2CCOCC2)cc1 (configuration not stated)	.	-5	-2	.	.	-4	6	.
COc1ccccc1NS(=O)(=O)c1cc(NC(=O)c2cccs2)ccc1N1CCCC1	i	.	-167	-8	5	5	-7	-11
COc1ccc(NC(=O)Cn2c(=O)sc3ccccc32)c(OC)c1	i	-4	2	-7	-8	7	-2	-2
COC(=O)c1c(C)[nH]c(C(=O)COC(=O)CCc2ccc(OC)c(OC)c2)c1C	.	-27	-27	.	.	-2	-2	.
CC(=O)Nc1cncc(-c2cnn(CC(C)C)c2)n1	.	-25	2	.	.	3	3	.
COC(=O)c1ccccc1NC1OC(=O)c2ccccc21 (configuration not stated)	i	-13	.	8	8	2	0	-3
O=Cc1cccn1-c1nccc(-c2ccco2)n1	i	-12	-33	8	-1	0	3	-3

A portion of the library, so the mix of outcomes need not match the whole.
